TRPV1 potentiator – HTS Assay for Compounds that Act as Potentiators of the Vanilloid Receptor 1 | Transient receptor potential cation channel subfamily V member 1 (Homo sapiens), Q8NER1 | 320,000 compounds, 0.02% hits | TRPV1-expressing cells, Fluo-8 calcium influx, capsaicin EC20 potentiation; host cell line not named in the record; control for the full effect not named in the record | potentiation, % at 8.33 µM | AID 540277, 2011; active means potentiation above 80%; inconclusive means 30% to 80%; inactive means below 30%; also: 0% is about no effect
Target sequence (Q8NER1 whole entry, looked up): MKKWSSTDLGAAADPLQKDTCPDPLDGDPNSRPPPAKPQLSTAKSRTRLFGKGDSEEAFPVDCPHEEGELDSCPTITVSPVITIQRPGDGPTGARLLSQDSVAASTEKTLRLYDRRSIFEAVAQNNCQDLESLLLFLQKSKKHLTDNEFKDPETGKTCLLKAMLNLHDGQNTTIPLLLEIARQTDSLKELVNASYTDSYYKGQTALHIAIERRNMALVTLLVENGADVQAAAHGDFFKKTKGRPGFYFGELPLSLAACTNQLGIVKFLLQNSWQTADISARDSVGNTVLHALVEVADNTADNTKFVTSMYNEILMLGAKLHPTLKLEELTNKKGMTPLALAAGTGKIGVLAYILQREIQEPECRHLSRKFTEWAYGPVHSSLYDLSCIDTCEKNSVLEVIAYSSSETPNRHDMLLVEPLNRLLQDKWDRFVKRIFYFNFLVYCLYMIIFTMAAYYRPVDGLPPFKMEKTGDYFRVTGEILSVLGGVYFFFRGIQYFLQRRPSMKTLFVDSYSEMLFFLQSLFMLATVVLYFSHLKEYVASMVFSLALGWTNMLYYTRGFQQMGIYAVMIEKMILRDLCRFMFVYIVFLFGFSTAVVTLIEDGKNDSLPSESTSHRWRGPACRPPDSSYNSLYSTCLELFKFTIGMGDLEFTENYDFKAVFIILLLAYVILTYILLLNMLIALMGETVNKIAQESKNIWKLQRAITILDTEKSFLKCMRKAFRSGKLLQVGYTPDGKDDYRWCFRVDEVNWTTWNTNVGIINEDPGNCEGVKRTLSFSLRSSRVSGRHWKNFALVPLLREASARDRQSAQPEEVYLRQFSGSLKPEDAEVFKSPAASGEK
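TRPV1-expressing cells were cultured overnight at 35.5C and loaded with Fluo-8 calcium dye for 40 to 90 min at room temperature. After a 10 s baseline, compound was added and calcium influx was read kinetically for 3 min (ex 480/em 520 nm).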
gsp antagonist – qHTS for Antagonists of gsp, the Etiologic Mutation Responsible for Fibrous Dysplasia/McCune-Albright Syndrome: qHTS | gsp-mutant cells, cAMP HTRF, 30 min; control for the full effect not named in the record | Potency, µM (highest dose often 76.9 µM), for inactives: top-dose activity change, negative = inhibition, hits mostly inhibitors | 340,000 compounds, 0.4% hits; active = falling curve of any shape with a large fitted effect; inconclusive = falling curve, mostly with a smaller effect; inactive = flat or rising curve; cell line not stated here;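 also: intracellular cAMP measured with PDE inhibitor Ro 20-1724 present during compound exposure; potency is read from the fitted curve at half-maximal effect; % is scaled to controls: 0 for no effect and ±100 for the full control effect; nearly all actives have a fitted effect of over 65% in size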
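G418-selected cells were plated in DMEM/10% FBS for 16-24 h at 37C, then treated with compounds plus the PDE inhibitor […] (300 uM solution added) for 30 min at 37C. Intracellular cAMP was measured by HTRF after 30 min lysis at room temperature.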
CtBP-E1A blk – qHTS Assay for Inhibitors of the CtBP/E1A Interaction | AlphaScreen GST-E1A/His-CtBP binding, 1536-well; hits give low values; control for the full effect not named in the record | activity change, % (test concentration not listed) | 340,000 compounds, 0.49% hits | AID 651724, 2012; in the data active means activity change below about -65%; inconclusive means about -30% to -65%; inactive means above about -30%; also: % is scaled to controls: 0 for no effect and ±100 for the full control effect
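GST-E1A and His-tagged CtBP (125 nM each as 5X stock) were preincubated with pin-transferred compound for 2 h at 37 °C in the dark, then glutathione donor and nickel acceptor beads were added for 1 h before AlphaScreen reading.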
gsp agonist – qHTS for Agonist of gsp, the Etiologic Mutation Responsible for Fibrous Dysplasia/McCune-Albright Syndrome: qHTS. Potency, µM (series often up to 76.9 µM), for inactives: top-dose activation (cAMP increase), usual class: activators. 340,000 compounds, 0.13% hits. gsp mutant cells, cAMP HTRF, 30 min; control for the full effect not named in the record; active = well fitted activation curve with a large enough effect; inconclusive = small, poorly fitted or top-dose-only effect, or another doubt; inactive = no such curve, though single readings can be large or run the other way; cell line not stated here;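 also: phosphodiesterase inhibitor Ro 20-1724 added with compounds to block cAMP breakdown; potency is read from the fitted curve at half-maximal effect; nearly all actives have a fitted effect of over 60% in size; about a fifth of the inactives were tested at one dose only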
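Cells in DMEM/10% FBS with G418 were pretreated with compounds in DMSO plus […] (300 uM stock) for 30 min at 37C. cAMP was measured by HTRF (cAMP-d2 plus anti-cAMP antibody-K) after 30 min at room temperature.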
Menin MLL FP FL – qHTS Assay for Inhibitors Targeting the Menin-MLL Interaction in MLL Related Leukemias: Competition With Fluorescein Labeled MLL-derived Peptide | 290,000 tested, under 10 active | FP activity change, % at 61.4 µM | Fluorescence polarization, fluorescein-MLL peptide displacement from menin; inconclusive = falling polarisation curve, or a change in total fluorescence; inactive = total fluorescence flat and polarisation flat or rising; no compound was filed as active; the % refers to the polarisation; negative = inhibition;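 also: % of control where 0% means no effect; inhibitors lower the polarisation; unlabelled MLL peptide was the positive control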
Sfp inh – qHTS Assay for Inhibitors of Bacillus subtilis Sfp phosphopantetheinyl transferase (PPTase). Biochemical Sfp PPTase activity, qHTS. Potency, µM, without a hit: max response, negative = inhibition, hits mostly inhibitors. 310,000 compounds, 3.5% hits. 4'-phosphopantetheinyl transferase ffp (Bacillus subtilis), Q9F4F7; active = well fitted inhibition curve with a large enough effect; inconclusive = small, poorly fitted or top-dose-only effect, or another doubt; inactive = no such curve, though single readings can be large or run the other way;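 also: the enzyme is Sfp with the accession as filed and its product quenches rhodamine fluorescence; potency is read from the fitted curve at half-maximal effect; 0% = enzyme reaction without inhibitor and -100% = no enzyme wells; top concentration of the series not given in the record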
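Fluorescence-quenching assay: 15 nM Sfp-PPTase preincubated 15 min at room temperature with compound, then 5 uM rhodamine-CoA and 12.5 uM BHQ-2-labelled YbbR peptide added. Fluorescence (ex 525/em 598 nm) read at start and after 30 min; difference gives rate.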
ClpP mod – qHTS Assay for Activators of ClpP; Potency, µM (top dose mostly 57.5 µM), for the others: at the top dose activity change, negative = active; ATP-dependent Clp protease proteolytic subunit (Bacillus subtilis (strain 168)), P80244; AID 651965, 2013; 340,000 compounds, 1.9% hits; purified B. subtilis ClpP, FRET peptide cleavage, 20 min; active = well fitted falling curve with a large enough effect; inconclusive = small, poorly fitted or top-dose-only effect; inactive = no such curve, though single readings can be large or run the other way; also: potency is read from the fitted curve at half-maximal effect; the source files actives as falling curves though it sought activators and does not explain the sign; nearly all actives have a fitted effect of over 65% in size; many hits overshoot -100%
Target sequence (P80244 whole entry, looked up): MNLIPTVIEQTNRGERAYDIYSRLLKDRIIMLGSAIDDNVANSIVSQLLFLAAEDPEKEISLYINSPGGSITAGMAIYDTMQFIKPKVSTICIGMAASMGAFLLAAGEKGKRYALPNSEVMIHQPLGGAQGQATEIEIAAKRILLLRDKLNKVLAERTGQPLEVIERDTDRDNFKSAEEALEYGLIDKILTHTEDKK
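Purified B. subtilis ClpP, 10 microg/mL final in Tris/HCl pH8 with KCl, BSA, glycerol and Tween-20, cleaved an Abz/nitrotyrosine-quenched decapeptide. Fluorescence (ex 320, em 430) was read at 0 and 20 min at room temperature. Delta was normalized to 5.8 microM ADEP and DMSO/no-enzyme controls.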
* hit, by the source's call; u = inconclusive; x = no result given; & = joins results of further samples; [ ] = another dose, or the depositor's remark.

SMILES	TRPV1 potentiator	gsp antagonist	CtBP-E1A blk	gsp agonist	Menin MLL FP FL	Sfp inh	ClpP mod
N#C/C(C(=O)N1CCOCC1)=C1/SC(Cc2ccc(F)cc2)C(=O)N1c1ccccc1 (stereo not drawn)	4.4	6.9%	12.0	2.9%[15.4 µM]	3.7	-3.7%	x
COc1ccc(/C=N/n2cnn(Cc3ccccc3Cl)c2=S)cc1OC	17.7	-17.3%	-9.4	1.2%	0.1	u	x
O=C(c1csc(Nc2cccc3ccccc23)n1)N1CCCC1	-5.2	9.3%	-3.9	0.3%	2.9	-27.3%	-19.4%
CN(CC(=O)Nc1cc(S(=O)(=O)N2CCCC2)ccc1Cl)Cc1cccs1	3.9	-26.9%	-18.0	3.6%	-2.3	-6.6%	-4.9%
CCN(CC)S(=O)(=O)c1ccc(Cl)c(C(=O)OC)c1	-13.3	-11.6%	3.6	19.1%	3.7	12.7%	-0.6%
CCOC(=O)c1ccc(-n2ncc(C(=O)OCC)c2N)cc1	9.4	-5.3%	-1.9	18.6%	-0.9	4.2%	0.2%
O=C(O)C[C@H]1c2cc(F)ccc2S(=O)(=O)N1C1CCCCC1	x	7.6%	3.4	x	x	x	2.8%&-1.1%
Cc1cc(C)c(S(=O)(=O)N(CC(=O)N2CCCC2)C2CCCCC2)c(C)c1	-43.0	-12.2%	2.7	5.7%	3.8	-12.5%	0.9%
CC(=O)c1ccc(NC(=O)CNC2CCCCC2)cc1	-8.0	-10.3%	2.3	26.7%[15.4 µM]	-8.2	u	-0.1%
Cc1cccc(N2CCN(C(=O)c3ccccc3NC(=O)C3CCCCC3C(=O)O)CC2)c1 (stereo not drawn)	1.8	-4.6%	2.4	-0.2%	-3.1	7.1%	-4.3%
C[C@@H]1CN([C@@H](C)CO)C(=O)CCCn2nncc2CO[C@@H]1CN(C)S(=O)(=O)c1ccccc1	x	x	24.3	4.5%	x	x	2.7%
CN(CC(=O)Nc1ccccc1F)Cc1cccs1	-11.7	6.5%	-5.7	2.4%[15.4 µM]	-1.4	8.8%	0.1%
Cn1nnnc1SCc1ccccc1F	-5.4	3.4%	-2.4	-24.0%	2.4	8.6%	-6.6%
Cn1nc(C(=O)Nc2cccc(S(=O)(=O)N3CCCC3)c2)c2ccccc2c1=O	u	-4.3%	x	9.7%	x	x	1.2%
COc1cc2c(cc1NC(=O)CN1CCN(S(=O)(=O)c3ccccc3F)CC1)oc1ccccc12	7.8	12.3%	3.4	u	5.1	-8.3%	3.55µM*
c1ccc(-c2nc3cccnc3nc2-c2ccccc2)cc1	x	-14.1%	0.0	-11.1%[15.4 µM]	x	x	1.1%
CNC(=O)c1cn2c3c(ccc(Cl)c3c1=O)OC(C)C2 (stereo not drawn)	x	32.3%[activator]	x	u	x	x	3.7%
COc1ccccc1C(C)NCC(=O)Nc1c(F)cccc1F (stereo not drawn)	-1.5	-3.4%	-0.8	-1.6%[15.4 µM]	-7.1	6.0%	0.9%
Cc1cc(C)n(CC(O)COc2ccc(C(C)C)c(C)c2)n1 (stereo not drawn)	-0.3	2.9%	7.0	1.6%[15.4 µM]	3.3	-2.2%	-0.8%
CCOC(=O)c1c(CC(C)C)csc1NC=O	-34.5	0.3%	10.1	1.3%	4.1	17.8%	-4.9%
Cc1nnc2ccc(N3CCCCC3)nn12	29.9	3.4%	0.0	6.2%[15.4 µM]	-2.3	7.5%	-0.6%
Cc1ccc(S(=O)(=O)N2CCOCC2)cc1NC(=O)CN1CCN(c2ccc(O)cc2)CC1	1.6	-7.6%	6.9	-7.7%[15.4 µM]	7.6	39.8µM*	-5.1%
CC(=O)NC(=S)Nc1cc(C(=O)O)ccc1Cl	u	-4.5%	x	6.2%	-3.8	9.3%	0.1%
O=Cc1ccccc1-n1cncn1	11.7	8.5%	2.5	-6.7%[15.4 µM]	-3.6	15.0%	-0.9%
COc1ccc(NC(=O)CN(C)C(=O)/C=C/c2cn(-c3ccccc3)nc2-c2ccc(F)cc2)cc1	3.2	-31.7%	5.9	0.5%	x	x	-16.0%
O=C(COc1ncnc2ccc(Br)cc12)NC1CCCC1	-2.6	7.6%	-24.3	6.4%	x	x	-0.7%
COc1ccc(N2CCN(Cc3nc4cc(Cl)ccc4c(=O)[nH]3)CC2)cc1	u	-29.8%	-6.1	-11.1%[15.4 µM]	1.9	7.7%	x
N#CCSCC(=O)Nc1ccccc1	8.1	12.2%	17.6	u	-0.9	11.6%	-1.0%
COc1ccc(CSCCN)cc1Cl	u	0.0%	-7.6	-3.7%	-1.7	9.0%	-0.3%
COc1ccc(/C(N)=N/OC(=O)CCC2CCCC2)cc1OC	12.1	3.4%	28.4	2.3%	-1.7	4.2%	-0.2%
COc1cccc(CN(C)C(=O)c2ccc(NC(=O)CC3SC(N4CCCCC4)=NC3=O)cc2)c1OC (stereo not drawn)	x	-8.4%	0.5	4.3%	x	x	0.7%
Cc1cccc(NC(=O)NNC(=O)CCc2ccccc2)c1	8.6	11.0%	1.0	-2.4%	0.4	0.6%	-0.7%
Cc1csc(SC(C)C(=O)NCC(=O)Nc2ccc(F)c(F)c2F)n1 (stereo not drawn)	-4.2	5.6%	8.4	-15.6%[15.4 µM]	2.7	3.9%	x
CCN(c1ccccc1)S(=O)(=O)c1ccc(OCc2c(C)noc2C)cc1	-16.7	-9.5%	3.5	-29.8%	3.8	8.5%	0.4%
Cc1ccc(OCC(O)CNC(C)c2ccccc2)cc1C (stereo not drawn)	-2.5	2.4%	x	14.0%	x	-2.9%	-1.9%
COc1ccccc1/C=C/CN1CCCC(CO)(Cc2cccc(Cl)c2)C1 (stereo not drawn)	-4.1	10.2%	-4.0	-10.5%[15.4 µM]	-5.2	-5.5%	x
Cc1ccc2sc(N(CCN(C)C)C(=O)c3ccc(S(=O)(=O)N4CC(C)OC(C)C4)cc3)nc2c1C (stereo not drawn)	-1.0	10.2%	-7.6	-47.8%[inhibitor]	-9.5	-28.5%	-0.9%
Cc1ccc(-c2c(C)n([O-])c3c([n+]2=O)CCCCC3)o1	5.2	-9.0%	4.4	-0.1%	1.4	26.0%	-0.7%
CCn1c(SCC(=O)c2cc(OC)ccc2OC)nc2c1c(=O)n(C)c(=O)n2C	-11.6	x	x	x	-0.8	15.7%	x
COc1ccc(C(=O)NCC(=O)OCC(=O)c2cc(OC)c(OC)c(OC)c2)cc1OC	-3.2	-6.2%	-1.0	-4.6%	4.7	2.7%	3.2%
CCC(C)NC(=O)C1CCN(S(=O)(=O)N2CCCC2)CC1 (stereo not drawn)	-2.2	8.6%	2.1	-5.2%	-2.7	10.4%	-2.8%
O=C1C=C(c2cc(F)ccc2F)C[C@@H](c2ccc(Cl)cc2)C1	-12.0	-2.1%	16.8	-20.4%	x	x	-1.1%
COc1ccc(OC)c(S(=O)(=O)N(C)CC(=O)N2CCN(c3ccccc3F)CC2)c1	-11.6	-1.8%	0.3	-22.3%	-0.3	6.5%	4.5%
Fc1cccc(Cc2noc(CN3CCC(c4ccncc4)CC3)n2)c1	-4.4	2.3%	x	-14.0%	-0.2	14.1%	-1.4%
CCOC(=O)C(C(=O)OCC)N(C#N)c1nc(OC)nc(N(C)C)n1	7.5	-0.9%	-2.2	-32.7%[inhibitor]	9.4	-22.4%	-1.6%
CC(=O)N1CCN(S(=O)(=O)c2cccc(C(=O)OCC(=O)NC(=O)c3cccn3C)c2)CC1	3.3	0.9%	-2.0	-37.0%[inhibitor]	-0.3	18.4%	0.3%
O=C(COc1ccc(Br)cc1)NNC(=S)NC(=O)c1ccccc1[N+](=O)[O-]	2.4	5.1%	0.8	3.1%	-2.6	9.9%	-1.8%
C=CCNc1cc(C(F)(F)F)nc(-c2ccccn2)n1	x	-0.8%	-0.2	-12.7%	2.8	10.2%	-6.7%
CSCCC(NC(=O)c1cccc(S(=O)(=O)N2CCN(C(C)=O)CC2)c1)c1nc2ccccc2[nH]1 (stereo not drawn)	x	11.8%	-1.7	u	x	x	-1.1%
COc1ccc(C(=O)CSC2=C(C#N)C3(CCCCC3)C(C#N)=C(N)N2)cc1	-6.0	u	-11.0	u	3.6	6.3%	-0.2%
COc1ccc(CCNC(=O)CCCCCN2C(=O)c3ccccc3C2=O)cc1	16.4	u	-1.6	-0.2%	-2.3	3.4%	-3.1%
CCN1CCN(C(=O)C2(NC(=O)Nc3ccccc3Cl)CCCCC2)CC1	-1.2	11.6%	3.0	-34.3%[inhibitor]	1.8	14.9%	0.3%
Cc1c(OCc2nn[nH]n2)ccc2c3c(c(=O)oc12)CCC(C)C3 (stereo not drawn)	0.0	u	-11.1	u	0.1	24.5%	-4.0%
COC(=O)c1cn(CCOc2ccc(C)cc2)c2ccccc12	-0.6	-9.7%	34.4	-35.2%[inhibitor]	3.1	-14.9%	-1.1%
O=C1CCN(C(=O)c2ccccc2)c2ccccc21	x	x	2.5	-3.2%	x	x	-1.8%
Cc1ccc(NC(=O)CN(C)C(=O)c2ccc(OCc3c(C)noc3C)cc2)cc1	-15.4	3.0%	-12.5	-31.0%	x	x	-2.8%

Look-ups from above.
In gsp agonist, `COc1ccc(CCNC(=O)CCCCCN2C(=O)c3ccccc3C2=O)cc1` is entered as -0.2%
In TRPV1 potentiator, `CC(=O)N1CCN(S(=O)(=O)c2cccc(C(=O)OCC(=O)NC(=O)c3cccn3C)c2)CC1` is entered as 3.3

Screening results as filed in PubChem BioAssay.
